High-throughput results (PubChem BioAssay)
HCMV UL50-53 inh = inhibitors of HCMV UL50-UL53 nuclear egress complex interaction; HTRF UL50-UL53 interaction, normalized percent inhibition; inhibition, % (test concentration not listed); 190,000 compounds, 0.15% hits;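 active = both replicates at 50% or more, plus weaker picks with an unusually low signal ratio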;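 note: stock transfer was 100 nL into about 20 µL; 0% = negative control wells and 100% = wells with untagged competitor protein; inactives centre near -12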
GIV-Gai inh = blocks GIV peptide binding to rat Galpha-i3 | 210,000 compounds, 0.42% hits | Galpha-i3/FITC-GIV peptide fluorescence polarization, 90 min; hits give low values; scaled: aluminum fluoride 0%, vehicle 100% | percent of control (FP), % (concentration not given with the values) | P08753;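 active = replicate mean at 85% of control or lower, very high polarization wells dropped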;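 note: wells of about 15 µL received 100 nL stock; the first replicate is given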
Target sequence (P08753 whole entry, looked up): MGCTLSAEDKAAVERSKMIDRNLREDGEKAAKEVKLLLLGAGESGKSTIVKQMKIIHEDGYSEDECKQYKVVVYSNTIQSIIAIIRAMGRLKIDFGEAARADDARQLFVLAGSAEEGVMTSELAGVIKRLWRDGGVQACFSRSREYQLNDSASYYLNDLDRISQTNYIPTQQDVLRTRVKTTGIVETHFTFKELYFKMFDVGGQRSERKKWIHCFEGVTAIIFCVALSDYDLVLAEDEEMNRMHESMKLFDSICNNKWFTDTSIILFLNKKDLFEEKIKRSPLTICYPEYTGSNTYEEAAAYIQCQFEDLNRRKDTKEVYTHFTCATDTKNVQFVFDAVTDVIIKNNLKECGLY
Sa growth 42C = S. aureus growth inhibition. S. aureus RN4220 growth, OD600, 20 h, 42 °C; hits give low values. relative growth, % (test concentration not listed). 170,000 compounds, 0.53% hits. AID 720641;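 active = growth at 42 °C up to 50% and 20 or more points under that at 30 °C, or under 10% at both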;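 note: 300 nL library stock went into each well; scaled to the means of positive and negative controls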
Sa growth 42C second temp = second read-out of Sa growth 42C, no call of its own (marks repeat the call); relative growth, %; measured here: growth at 30 °C;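 optical density after 20 h as mean of two plates; 100% = untreated growth and lower means inhibition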
Starred values were filed as active, the others as inactive; . = no result given; & = joins results of further samples.

1. Oc1c(C(c2ccccc2)N2CCN(Cc3ccccc3)CC2)sc2nc(-c3ccco3)nn12 (stereo unspecified)
2. CCN(CC)S(=O)(=O)c1cccc(C(=O)OCc2cc(=O)n3cc(C)ccc3n2)c1
3. COc1ccc(-c2cc(C(=O)N3CCCC3c3ccc(Cl)cc3)no2)cc1OC (stereo unspecified)
4. Nc1ncc2c(n1)CC(c1cc(F)cc(F)c1)CC2=O (stereo unspecified)
5. O=C1c2ccccc2C(=O)N1CCc1c[nH]c2ccccc12
6. O=C(CSc1nc2c(sc3ccccc32)c(=O)n1CCCN1CCOCC1)NC1CCCC1
7. O=C(NC1CCCCC1)c1cc(-c2ccccn2)nc2ccccc12
8. O=C(CSc1nnc(COc2ccccc2)o1)N1CCCC1

compound no.	1	2	3	4	5	6	7	8
HCMV UL50-53 inh	.	-60	-9	8	-22	4	-8	-12
GIV-Gai inh	97	.	108	101	103	98	.	95
Sa growth 42C	103	96	.	.	118	88	126	80
Sa growth 42C second temp	98	95	.	.	88	88	93	92

Some of the entries so far, with values under each structure:
Under each structure: HCMV UL50-53 inh	GIV-Gai inh	Sa growth 42C	Sa growth 42C second temp
4. Nc1ncc2c(n1)CC(c1cc(F)cc(F)c1)CC2=O (stereo unspecified)
→ 8	101	.	.
5. O=C1c2ccccc2C(=O)N1CCc1c[nH]c2ccccc12
→ -22	103	118	88
6. O=C(CSc1nc2c(sc3ccccc32)c(=O)n1CCCN1CCOCC1)NC1CCCC1
→ 4	98	88	88

One compound at a time, from the list above. Values in the order: HCMV UL50-53 inh, GIV-Gai inh, Sa growth 42C, Sa growth 42C second temp
O=C(CSc1nnc(COc2ccccc2)o1)N1CCCC1 is listed as -12, 95, 80, 92
Nc1ncc2c(n1)CC(c1cc(F)cc(F)c1)CC2=O (stereo unspecified) is listed as 8, 101, ., .
Oc1c(C(c2ccccc2)N2CCN(Cc3ccccc3)CC2)sc2nc(-c3ccco3)nn12 (stereo unspecified) is listed as ., 97, 103, 98
O=C(NC1CCCCC1)c1cc(-c2ccccn2)nc2ccccc12 is listed as -8, ., 126, 93
COc1ccc(-c2cc(C(=O)N3CCCC3c3ccc(Cl)cc3)no2)cc1OC (stereo unspecified) is listed as -9, 108, ., .

Remaining list, next part:
9. CC1(C)CC(=O)C2=C(C1)Nc1[nH]c(=S)[nH]c(=O)c1C2c1cccs1 (stereo unspecified)
10. COc1cccc(-c2ccnc3c(-c4ccccc4)c(C)nn23)c1
11. CCOc1ccc(C(=O)c2sc3nc(N)c(C#N)c(CC)c3c2N)cc1
12. Cc1ccc(-n2c(=O)c3ccc(C(=O)NCc4ccco4)cc3n(Cc3cccc(Cl)c3)c2=O)cc1
13. CC(C)c1ccc(C(=O)Nc2cccc3cccnc23)cc1
14. CCOC(=O)c1cc2c(ccn2C)n1CC(=O)N(c1ccccc1)c1ccccc1
15. COc1ccc(CCCc2nnc(SCC(=O)Nc3cccc(C)c3)o2)cc1
16. O=C(CSc1nnc(-c2cc3ccccc3[nH]2)n1-c1ccccc1)N1CCNC1=O

compound no.	9	10	11	12	13	14	15	16
HCMV UL50-53 inh	.	-10&-42	-14	-1	-14	-12	4	-50
GIV-Gai inh	104	106&101	99	107	107	102	112	.
Sa growth 42C	80	122	.	102	72	100	104	90
Sa growth 42C second temp	79	85	.	94	80	82	103	73

17. COc1ccc(C2CC(=O)N(c3cccc(Cl)c3)C(=O)C2)cc1
18. CCCc1cc(=O)[nH]c(SCCOC(=O)c2ccccc2)n1
19. Cc1ccc(CSc2nnc3[nH]c(=O)cc(C)n23)cc1
20. Cc1ccsc1CNS(=O)(=O)c1ccc2c(c1)CCO2
21. CCOC(=O)Cn1c(=O)c2c(nc3n2CCN3c2ccc(OC)cc2)n(C)c1=O
22. CCOC(=O)c1cccc(NC(=O)CC2C(=O)N(c3ccc(F)cc3)C(=O)N2C(C)C)c1 (stereo unspecified)
23. Cc1cc(C(=O)OC2CCOC2=O)c2ccccc2n1 (stereo unspecified)
24. CCOC(=O)N1CCc2c(sc3c2c(=O)n(-c2ccc(CC)cc2)c(=O)n3Cc2cccc(OC)c2)C1

compound no.	17	18	19	20	21	22	23	24
HCMV UL50-53 inh	0	-22	.	5	5	.	-58	-22
GIV-Gai inh	95	.	97	100	100	106	.	103
Sa growth 42C	.	86	102	120	.	108	91	103
Sa growth 42C second temp	.	89	96	94	.	91	95	87

25. NCCCN1CCCc2ccccc21
26. COc1ccc(/C=C/C(=O)N2c3ccccc3CC2C)cc1OC (stereo unspecified)
27. CCCn1c(N2CCN(C(=O)N3CCCCC3)CC2)nc2ccccc21
28. CC1CCN(S(=O)(=O)c2ccc(NC(=O)/C=C/c3ccccc3)cc2)CC1
29. O=S(=O)(Nc1cccc(Oc2ccc(Cl)cc2)n1)c1ccc(F)cc1
30. CC(Sc1nc2sccc2c(=O)n1C)C(=O)Nc1ccc2c(c1)OCO2 (stereo unspecified)
31. Cc1cc(C)c2c(n1)SCCN2C(=O)Nc1ccc(C(=O)NCCN(C)C2CCCCC2)cc1
32. CS(=O)(=O)Nc1cc(C(=O)N2CCCN(c3ncccn3)CC2)ccc1N1CCNCC1

compound no.	25	26	27	28	29	30	31	32
HCMV UL50-53 inh	-10	-37	0	-11	-23	-27	6	-13
GIV-Gai inh	104	.	97	.	93	.	101	97
Sa growth 42C	72	76	88	123	62	88	.	.
Sa growth 42C second temp	99	85	83	98	79	84	.	.

33. COCCNC(=O)CSc1nc(-c2ccccc2C)nc2c1c(=O)n(C)c(=O)n2C
34. COc1ccc(C2=CSC3=C(C(=O)c4cc(OC)c(OC)c(OC)c4)CCN23)cc1
35. CCOC(=O)Cc1nc2nc(C)c([N+](=O)[O-])c(=O)n2[nH]1
36. CN1CCN(C(=O)CN2C(=O)c3ccccc3Sc3ncccc32)CC1
37. Cn1c(SCC(=O)NN)nnc1-c1ccccc1
38. O=C(O)C1C2C=CC(O2)C1C(=O)Nc1ccccc1 (stereo unspecified)
39. Cc1nn(-c2ccccc2)nc1-c1nnc(-c2ccc(C(F)(F)F)cc2)o1
40. C[N+](C)(C)CCCCCC[N+](C)(C)C

compound no.	33	34	35	36	37	38	39	40
HCMV UL50-53 inh	.	-38	2	-260	-15	-4	5	-13&-16&-37
GIV-Gai inh	100	.	105	100	.	98	110	99&103
Sa growth 42C	80	78	.	.	100	95	105	.
Sa growth 42C second temp	90	61	.	.	81	81	94	.

41. Cc1cc(CNC(C)c2ccncc2)c(C)n1-c1ccnn1C(C)C (stereo unspecified)
42. Cc1ccc(CSc2nc3cccnc3n2Cc2ccc(C(=O)NCc3ccco3)cc2)cc1
43. COCCCN1C(=O)c2oc3ccccc3c(=O)c2C12C(=O)N(C)c1ccccc12 (stereo unspecified)
44. O=C(CO/N=C/c1ccco1)N1CCN(S(=O)(=O)c2ccc3ccccc3c2)CC1
45. CN(C)c1ccc(CN(CC2CCCO2)S(=O)(=O)c2ccccc2C#N)cc1 (stereo unspecified)
46. COc1ccc(NC(=O)c2c(C)oc3ccc(O)c(CN4CCOCC4)c23)cc1
47. COc1cccc(OCCCSC(C)C)c1
48. c1ccc2c(c1)ncn2-c1ncnc2sc3c(c12)CCCC3

compound no.	41	42	43	44	45	46	47	48
HCMV UL50-53 inh	2	.	-17	-47	-37	-14	-7	-18
GIV-Gai inh	.	96	103	.	.	100	105	100
Sa growth 42C	94	131	107	85	70	108	117	97
Sa growth 42C second temp	90	98	90	89	79	86	123	91

49. COc1cccc(OC)c1CN(C)C(=O)c1cnc(Oc2ccccc2)cc1C(F)(F)F
50. O=C(NC1CCCCC1)c1ccc2c(c1)N(Cc1cccc(Cl)c1)C(=O)c1ccccc1S2(=O)=O
51. CSc1nn(C)c2cnn(C)c(=O)c12
52. O=c1oc2ccccc2c(N2CCCCC2)c1CN1CCCCC1
53. O=C(c1ccccc1Br)N1CCN(c2ccccc2)CC1
54. Cc1ccc(-c2nc(C(=O)NCCN3CCc4ccccc4C3)c3n2CCCCC3)cc1
55. COc1ccc(-n2c(=O)c3ccccc3n(Cc3ccccc3C#N)c2=O)c(OC)c1
56. CCCCCC(=O)Nc1ccc2oc(-c3cccnc3)nc2c1

compound no.	49	50	51	52	53	54	55	56
HCMV UL50-53 inh	-45	.	-11	-10	14	.	-2	7
GIV-Gai inh	106	98	102	101	.	106	104	104
Sa growth 42C	91	110	83	92	81	76	109	94
Sa growth 42C second temp	94	90	89	88	97	49	94	89

57. COc1cc([N+](=O)[O-])ccc1NC(=O)c1cc(-c2ccccc2)nc2ccccc12
58. CCc1ccc(N(C2C=CS(=O)(=O)C2)S(=O)(=O)c2ccccc2)cc1 (stereo unspecified)
59. CC(C(O)c1ccccc1)N(C)S(=O)(=O)c1ccc(Cl)cc1 (stereo unspecified)
60. Cc1ccn2c(=O)cc(CSc3nnc(C)s3)nc2c1
61. COc1cc(CNCCCSc2nnnn2C)cc(Br)c1OC
62. NOCc1cccc(C(F)(F)F)c1
63. Cc1ccc(Nc2c3c(nc4ccccc24)CCC3)cc1F
64. CC(=O)Nc1ccc2sc(C)nc2c1

compound no.	57	58	59	60	61	62	63	64
HCMV UL50-53 inh	-7	-7	-3	.	-44	-5	-28	-18
GIV-Gai inh	107	103	.	96&113	103	102	104	101
Sa growth 42C	.	103	116	111	92	.	96	120
Sa growth 42C second temp	.	97	96	92	84	.	73	95

65. O=C(NCCc1nc2ccccc2[nH]1)c1[nH]nc2c1CCc1ccccc1-2
66. CCc1noc2ncnc(NC3CCCCC3)c12
67. O=C1CC(c2nc3ccccc3n2CC(O)COc2ccccc2)CN1c1ccccc1 (stereo unspecified)
68. CCCn1cnc2cc(NCc3ccccc3OCC)ccc21
69. CSc1nc2ccc(NC(=O)c3ccc4ncsc4c3)cc2s1
70. CCOc1ccc(N2CC(C#N)=C3c4cc(OC)c(OC)cc4CCN3C2)cc1
71. Cc1c(CN2CCOCC2)c(=O)n(-c2ccccc2)n1C
72. COc1ccc2c(c1)cc(C(=O)Nc1ccc(F)cc1F)n2C

compound no.	65	66	67	68	69	70	71	72
HCMV UL50-53 inh	-8	13	-2	-16	-8	5	-17	-9
GIV-Gai inh	100	108	114	106	106	103	104	103
Sa growth 42C	90	.	.	101	124	95	95	.
Sa growth 42C second temp	83	.	.	82	100	88	87	.

73. CCCNC(=O)C1CCCN(c2nc3c(C)cc(C)cc3s2)C1 (stereo unspecified)
74. O=C(Nc1cccc(C(F)(F)F)c1)c1cc(-c2ccccc2)on1
75. Cc1nn(C)c2c1c(C(F)(F)F)cc(=O)n2C(C)C(=O)N1CCN(c2ccccc2)CC1 (stereo unspecified)
76. c1csc(CN2CCN(Cc3cccs3)C2c2cccs2)c1
77. Nc1ccc(Sc2ccccc2)nc1Sc1ccccc1
78. Cc1cccc(C)c1-n1nnnc1S(=O)(=O)Cc1ccccc1Cl
79. CCS(=O)(=O)c1ccc2oc(SCC(=O)NCc3ccccc3)nc2c1
80. COc1ccccc1N=C(NC#N)SC

compound no.	73	74	75	76	77	78	79	80
HCMV UL50-53 inh	.	-19	.	-4	-1	-5	-16	-1
GIV-Gai inh	103	101	104	.	105	104	.	98
Sa growth 42C	113	82	102	79	102	96	93	103
Sa growth 42C second temp	87	91	92	89	91	99	93	91

81. O=C(Cc1nc2ccccc2n1C(=O)c1ccccc1)N1CCOCC1
82. N#CC(C(=O)c1cccc(N2C(=O)CCC2=O)c1)c1ccccn1 (stereo unspecified)
83. O=C(c1ccccc1)C1Oc2ccccc2OC1O (stereo unspecified)
84. COC(=O)CNS(=O)(=O)c1ccc(I)cc1
85. COc1ccc(OCc2nnc(SCC(=O)O)n2N)cc1
86. CCOc1ccc(NC(=O)CSc2ncnc3c2sc2ccccc23)cc1
87. N#Cc1c(N2CCOCC2)nc2c3c(nc4c(c13)CC(=O)N4c1cccc(Cl)c1)NC1(CCCCC1)N2

compound no.	81	82	83	84	85	86	87
HCMV UL50-53 inh	-8	-1	0	-21	-9	.	-14
GIV-Gai inh	.	.	.	.	102	108	.
Sa growth 42C	119	99	105	89	103	105	72
Sa growth 42C second temp	86	98	87	84	73	90	94
